# Compound activity: PubChem BioAssay, National Center for Advancing Translational Sciences (NCATS)
# PINK1 modulator – PINK1 expression modulation. Potency, µM (titrated, usually from 76.6 µM), for inactives: at the top dose activation (PINK1 increase), usual class: activators. 410,000 compounds, 0.2% hits. AID 624263. PINK1 immunofluorescence, high-content cytometry, 24 h; active = well fitted activation curve with a large enough effect; inconclusive = small, poorly fitted or top-dose-only effect; inactive = flat fitted curve, though single readings scatter; cell line not stated here;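 also: potency is read from the fitted curve at half-maximal effect; % of control where 0% means no effect; nearly all actives have a fitted effect of over 65% in size; a mitochondrial uncoupler was the plate control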
#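 Stable cell line treated 24 h with compounds at 5 concentrations (CCCP controls), then fixed and immunostained for PINK1 plus nuclear and cell stains; PINK1 immunofluorescence quantified by laser-scanning microplate cytometry.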
# D2 ag – human D2 receptor agonism in beta-arrestin assay | P14416 | activation, % (concentration not given with the values) | 360,000 compounds, 0.084% hits | DiscoveRx PathHunter D2 beta-arrestin, luminescence, 90 min; 100% = 57 uM dopamine signal; in the data active = activation above about 40%; inconclusive = about 15% to 40%; inactive = below about 15%; also: the text of the record calls up to 30% inactive
# Target sequence (P14416 whole entry, looked up): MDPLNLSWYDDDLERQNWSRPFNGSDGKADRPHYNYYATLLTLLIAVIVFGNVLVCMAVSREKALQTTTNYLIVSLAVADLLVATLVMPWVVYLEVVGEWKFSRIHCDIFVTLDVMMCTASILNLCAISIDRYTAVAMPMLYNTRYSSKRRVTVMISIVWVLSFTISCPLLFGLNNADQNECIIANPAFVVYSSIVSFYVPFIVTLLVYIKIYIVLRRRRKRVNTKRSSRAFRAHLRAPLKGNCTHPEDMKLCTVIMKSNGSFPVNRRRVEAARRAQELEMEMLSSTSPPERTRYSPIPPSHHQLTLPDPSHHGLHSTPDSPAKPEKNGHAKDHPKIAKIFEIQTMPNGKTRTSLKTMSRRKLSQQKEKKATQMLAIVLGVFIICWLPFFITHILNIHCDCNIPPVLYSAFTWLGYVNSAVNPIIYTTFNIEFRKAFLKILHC
#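 DiscoveRx PathHunter D2 beta-arrestin cells (2,100/well) attached overnight, then compound-stimulated 90 min at 37 C in HBSS/10 mM HEPES/0.1% Tween-20 buffer; beta-galactosidase complementation read by luminescence after 1 h at ambient temperature. Dopamine 57 uM final (EC100) as control.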
# TRPML1 inh – human mucolipin-1 channel inhibition. Q9GZU1. TRPML1-inducible cells, Ca2+ dye fluorescence, FDSS; stronger effect = lower value; inhibition of EC80 agonist-evoked calcium signal. activity change, negative = inhibition, % (no concentration beside the values). 390,000 compounds, 0.02% hits. AID 624415; in the data active means activity change below about -50%; inconclusive means about -30% to -50%; inactive means above about -30%;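 also: stimulus is agonist 54-4 at its EC80 concentration; % is scaled to controls: 0 for no effect and ±100 for the full control effect; compound concentration not given in the record; the text of the record puts the active cut at -80%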
# Target sequence (Q9GZU1 whole entry, looked up): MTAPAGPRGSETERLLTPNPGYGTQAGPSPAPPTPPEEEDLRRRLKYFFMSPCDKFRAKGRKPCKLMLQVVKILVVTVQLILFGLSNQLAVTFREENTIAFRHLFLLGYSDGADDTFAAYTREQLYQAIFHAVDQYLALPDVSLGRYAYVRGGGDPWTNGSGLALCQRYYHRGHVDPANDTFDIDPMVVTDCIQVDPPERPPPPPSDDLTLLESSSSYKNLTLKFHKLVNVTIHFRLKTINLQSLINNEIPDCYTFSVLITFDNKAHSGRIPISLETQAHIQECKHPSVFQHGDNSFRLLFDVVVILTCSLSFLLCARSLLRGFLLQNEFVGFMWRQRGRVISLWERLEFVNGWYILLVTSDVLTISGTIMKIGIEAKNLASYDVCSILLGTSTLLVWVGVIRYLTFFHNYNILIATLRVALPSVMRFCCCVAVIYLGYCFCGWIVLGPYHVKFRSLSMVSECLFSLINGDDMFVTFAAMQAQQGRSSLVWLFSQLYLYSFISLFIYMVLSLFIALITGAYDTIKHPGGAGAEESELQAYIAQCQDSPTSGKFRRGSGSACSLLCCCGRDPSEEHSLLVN
#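 TRPML1-DL cells, Tet-induced overnight (~16 h, 37 °C) at 1,500 cells/well, were loaded with Ca8 no-wash dye plus quencher for 45-90 min at room temperature. Compounds were pinned during FDSS kinetic reading; agonist 54-4 at EC80 (4 uM final) then added.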
# CtBP-E1A inh – blocks the CtBP interaction with E1A; activity change, % (concentration not given with the values); 340,000 compounds, 0.49% hits; AlphaScreen GST-E1A/His-CtBP binding, 1536-well; stronger effect = lower value; control for the full effect not named in the record; in the data active means activity change below about -65%; inconclusive means about -30% to -65%; inactive means above about -30%; also: % is scaled to controls: 0 for no effect and ±100 for the full control effect
#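 Steps: dispense buffer (Tris pH 8.0, NaCl 300 mM, TCEP 1 mM, BSA, Tween 20); add 5X protein mix (GST-E1A, His-CtBP, 125 nM each); pin 23 nL compound; 2 h at 37 °C, dark; add 5X beads (50 ug/mL); 1 h; read.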
# TRPML1 ag – activates the human TRPML1 channel | Q9GZU1 | 410,000 compounds, 0.12% hits | TRPML1-expressing cells, Ca2+ dye fluorescence, FDSS; host cell line not named in the record; reference of the full effect not given here | activation, % (no concentration beside the values); in the data active = activation above about 50%; inconclusive = about 30% to 50%; inactive = below about 30%; also: 0% is about no effect; the text of the record puts the active cut at 80%
#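 Kinetic FDSS Ca2+ read in Tet-induced TRPML1-DL cells (ABD Ca8 dye plus quencher, 45-90 min RT loading): baseline, then compound, then 110 s agonist window; EC80 agonist 54-4 at 4uM final added afterwards for a 110 s antagonist window.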
# Six1-Eya2 blk – inhibitors of human Six1/Eya2 interaction; AlphaScreen GST-Six1/His-Eya2 binding, biochemical; stronger effect = lower value; control for the full effect not named in the record; AID 651725; activity change, % (test concentration not listed); 360,000 compounds, 0.56% hits; in the data active = activity change below about -65%; inconclusive = about -30% to -65%; inactive = above about -30%; also: % is scaled to controls: 0 for no effect and ±100 for the full control effect
#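 Six1/Eya2 binding was read as AlphaScreen signal after compounds were pinned into GST-Six1 plus His-tagged Eya2 (5X stock 250/500 nM) in pH 8.0 Tris/NaCl/TCEP buffer, beads added, then incubated 1 h, 37 C, dark.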
# * marks the source's active call; other numbers are inactive results; ? = inconclusive; nt = no result given; & = joins results of further samples; [ ] = remark or other dose. Not a hit list; 1% or so of the library scored in one or more.
# Preview (three entries):
SMILES,PINK1 modulator,D2 ag,TRPML1 inh,CtBP-E1A inh,TRPML1 ag,Six1-Eya2 blk
CCC1CCCCN1CCCNC(=O)C1CC(=O)N(CCc2ccccc2)C1 (centres undefined),0.2%,-6.6,9.8,-2.5,-0.5,2.6
O=C(Nc1cccc2ccccc12)c1csc([C@@H]2C[C@H](O)[C@@H](CO)O2)n1,-0.1%,-1.6,nt,2.7,-0.3,-2.6
Cc1c2cnn(CC(=O)NCc3ccccc3)c(=O)c2c(C)n1Cc1cccc(Cl)c1,6.0%,nt,-18.6,nt,-0.1,nt

# Main list, from the first entry:
SMILES,PINK1 modulator,D2 ag,TRPML1 inh,CtBP-E1A inh,TRPML1 ag,Six1-Eya2 blk
CCC1CCCCN1CCCNC(=O)C1CC(=O)N(CCc2ccccc2)C1 (centres undefined),0.2%,-6.6,9.8,-2.5,-0.5,2.6
O=C(Nc1cccc2ccccc12)c1csc([C@@H]2C[C@H](O)[C@@H](CO)O2)n1,-0.1%,-1.6,nt,2.7,-0.3,-2.6
Cc1c2cnn(CC(=O)NCc3ccccc3)c(=O)c2c(C)n1Cc1cccc(Cl)c1,6.0%,nt,-18.6,nt,-0.1,nt
CCc1ccccc1NC(=O)Nc1cccn(Cc2ccc(F)cc2)c1=O,-1.6%,0.6,11.0,nt,2.0,10.2
COc1ccccc1NC(=O)CN1CCCCCC1,3.0%,-2.6,-5.6,0.6,-0.6,11.1
CC(Sc1nc(N2CCOCC2)c2c(c1C#N)CC(C)(C)OC2)C(=O)Nc1ccccc1 (centres undefined),4.9%[38.3 µM],0.8,8.5,4.1,0.9,5.8
NC(=O)c1nsc(C(=O)N(c2ccccc2)C(C(=O)NCC2CCCO2)c2ccc3ncccc3c2)c1N (centres undefined),0.2%,13.0,1.1,-12.0,0.4,-2.9
O=C(Nc1ccc(-n2cnnn2)cc1)C1CCC1,1.1%,0.2,-5.7,4.3,0.0,2.8
O=c1[nH]nc(Sc2ccccc2)c(=S)[nH]1,-0.4%,-5.4,-1.7,4.1,-0.6,-0.2
CN(CC(=O)Nc1cccnc1)S(=O)(=O)c1cc(Cl)ccc1Cl,-1.5%[38.3 µM],1.3,-7.1,4.1,0.2,2.9
COc1ccc(C(=O)Nc2nc(-c3ccccn3)cs2)cc1S(=O)(=O)N1CCOCC1,0.0%,?,30.2,nt,0.0,-92.5*
COc1ccc(CNc2nc3ccc(C)cc3s2)c(OC)c1OC,3.2%,-4.2,-0.5,-10.4,3.1,-7.7
CCN(CCNC(=O)c1cccc(N2CCCC2=O)c1)c1ccccc1,-1.9%,-2.8,-16.0,-1.7,3.0,-1.7
CSc1nc(C)cc(-n2cc(F)c(=O)[nH]c2=O)n1,-2.5%,-2.7,7.5,-1.8,-1.0,-1.4
Cc1cccn2c(=O)c3cc(C(=O)NC4CCCC4)c(=N)n(C4CCCCC4)c3nc12,0.1%,-0.3,-6.6,6.0,-0.2,3.3
COc1ccc(Br)c(C(=O)OCC(=O)N2CCC(Cc3ccccc3)CC2)c1,-3.5%,-0.4,19.6,-16.7,5.0,12.3
CNS(=O)(=O)c1cccc(C(=O)OCC(=O)NCCCc2ccccc2)c1,4.0%,-4.7,nt,7.6,nt,1.0
Cc1ccc(-c2nnc(Nc3ccccc3)c3ccccc23)cc1S(=O)(=O)N1CCN(C)CC1,0.6%,nt,31.6,nt,-0.1,nt
CC(=O)Nc1nc2c(C)c(Cl)ccc2s1,1.4%,-4.6,-1.6,nt,0.1,3.3
COCCCNC(NC(=O)c1ccc(OC)cc1)C(Cl)(Cl)Cl (centres undefined),2.6%,0.9,36.7,3.6,0.1,-0.1
CCN(CC(=O)Nc1ccccc1C(F)(F)F)CC(=O)c1[nH]c(C)c(C(C)=O)c1C,3.5%,-1.8,32.9,-3.8,-0.4,-2.7
Cc1cc(/C=C2/SC(=O)N(CC(=O)OC(C)C)C2=O)c(C)n1C,-2.4%[38.3 µM],-1.6,6.9,10.9,0.2,-4.9
COc1ccc(F)c(CN2CCC(n3nccc3NC(=O)C3CCOC3)CC2)c1 (centres undefined),1.3%,-3.3,-11.8,1.4,-0.1,10.0
O=C1NCCOC(=O)[C@H](Cc2ccc(F)cc2)CC/C=C/C[C@@H]1CC(=O)N(CCO)Cc1ccccc1,0.3%,-5.0,-17.6,2.2,-0.2,8.3
CCc1ccc(OCC(=O)Nc2ncn[nH]2)c(Br)c1,-2.1%,nt,8.6,nt,-0.8,nt
# Next records
SMILES,PINK1 modulator,D2 ag,TRPML1 inh,CtBP-E1A inh,TRPML1 ag,Six1-Eya2 blk
C[C@@H]1CCCCO[C@@H](CN(C)S(C)(=O)=O)[C@@H](C)CN([C@H](C)CO)C(=O)c2cc(N(C)C)ccc2O1,1.6%,4.8,3.5,1.3,-0.4,0.7
COc1ccc(OC)c(NC(=O)Cc2coc3ccc4ccccc4c23)c1,0.4%,-3.8,-1.7,-27.5,1.8,?
COc1cccc(C(=O)N2CCC[C@@H]2C(=O)N2CCC[C@@H]2C(=O)NCc2ccccc2Cl)c1,0.2%,nt,nt,7.3,1.4,1.3
Cc1nn(Cc2ccc(Cl)cc2Cl)c(C)c1NC(=O)c1nn(C)cc1Cl,-2.0%[38.3 µM],2.3,-5.0,-1.0,1.9,-1.4
C/C(=C/c1ccccc1)C(=O)N1CCC(C)CC1,0.3%,7.6,-10.2,0.0,0.2,10.3
Cn1c(=O)[nH]c(Nc2ccc(F)cc2)c([N+](=O)[O-])c1=O,-1.2%,-0.3,-9.8,-2.8,-0.2,-4.5
COc1ccc(N2CC(C(=O)NC3=NCCS3)CC2=O)cc1 (centres undefined),-1.1%,0.9,-13.1,-6.4,1.1,6.9
COc1cc(-c2noc(C)c2C#Cc2ccc(N)cc2)cc(OC)c1OC,1.0%,1.1,6.5,-3.6,1.5&-0.6,-19.2
CC(=O)Nc1ccc(NC(=O)CSc2ccc(-c3ccc(-n4ccnc4)cc3)nn2)cc1,2.2%,-5.1,1.2,-4.4,-0.5,-11.5
CN(C)C(CNC(=O)c1c(F)cccc1Cl)c1ccco1 (centres undefined),0.3%,1.4,0.4,-9.8,-0.1,1.6
Cc1cc(C)c2[nH]c(O)c(N=NC3=NC(=O)CS3)c2c1,0.7%,-5.3,-17.1,0.4,-0.5,-11.1
O=C(/C=C/c1cc([N+](=O)[O-])ccc1OC(F)F)Nc1ccc(OC(F)F)cc1,-2.6%,6.4,3.3,3.5,2.0,-1.2
Cn1cc(S(=O)(=O)N2CCNCC2)cc1C(N)=O,1.8%,-4.1,-14.1,15.0,-0.3,-1.2
COc1ccc(C(=O)NC2CCN(CC(=O)Nc3cccc(OC)c3)CC2)cc1,-1.8%,-4.3,24.4,-17.9,1.1,2.9
COc1ccccc1C(=O)NCCNC(=O)c1ccco1,-1.7%,-1.4,1.5,4.4,0.8,5.3
Cc1cc2ccccc2c(=O)n1CC(=O)Nc1ccc2c(c1)OCO2,0.6%,-1.6,6.0,-1.3,-0.9,-5.3
O=C(CSc1nnc(C2CC2)n1CC1CCCO1)Nc1ccc(Cl)cc1 (centres undefined),1.6%,-2.8,-11.0,3.2,0.0,-1.4
Oc1cccc(/C=N/Nc2ccc(Cl)nn2)c1,2.3%,3.4,10.6,-18.4,0.0,-13.1
CSCCC(NC(=O)c1ccco1)C(=O)N1CCCCCCC1 (centres undefined),0.1%,-2.5,7.4,3.0,0.2,7.8
COc1ccc(Cn2nnnc2C(C(C)C)N2CCc3ccccc32)cc1 (centres undefined),-5.0%[38.3 µM],1.8,53.1,6.5,1.5,-17.2
COc1cc2c3nnc(-c4ccc(F)cc4)c-3cn(Cc3ccc(F)cc3)c2cc1OC,5.8%,-4.4,27.5,-2.6,1.3,1.2
CC(/C=C1\SC(=O)N(CCCC(=O)O)C1=O)=C\c1ccccc1,0.7%,0.4,18.4,-4.1,1.2,-6.5
O=C(CN1CCN(c2ccc(Cl)cc2)CC1)Nc1cccc(F)c1,-0.4%,2.3,-6.9,-2.3,2.2,0.0
CC(C)(CO)NC(=O)Nc1ccc(Cl)c(Cl)c1,1.7%,0.1,1.4,nt,0.8,-3.6
O=C(CSc1nc(-c2ccco2)cc(C(F)(F)F)n1)N1CCc2ccccc2C1,-0.6%,-0.4,22.8,0.7,0.5,-4.7
# (more compounds)
SMILES,PINK1 modulator,D2 ag,TRPML1 inh,CtBP-E1A inh,TRPML1 ag,Six1-Eya2 blk
COc1cc(C(=O)OCC(=O)NC(=O)c2cccn2C)ccc1OC(F)F,10.8%,0.0,-9.2,4.2,-0.5,6.0
Cc1cccc(NC(=O)CC2CCC2)c1,4.5%[38.3 µM],-0.6,-6.5,-8.8,-0.2,-3.4
Cc1cc2c(cc1C)NC(CC(=O)NCc1ccccc1)C(=O)N2 (centres undefined),4.2%[38.3 µM],-1.9,9.2,-11.8,0.3,-7.4
O=C(N[C@@H](Cc1ccccc1)C(=O)NC1CCCCC1)c1ccco1,0.6%,-1.4,23.1,1.2,-0.6,8.9
CCOC(=O)CSc1nnc(CNC(=O)c2ccc(OC)cc2OC)n1-c1ccc(OC)cc1,-2.1%[38.3 µM],-1.6,-2.8,2.8,-0.2,-1.3
O=C(CCC1COc2ccccc2O1)Nc1ccccn1 (centres undefined),3.2%,-2.4,-11.8,-0.3,0.1,-6.0
COc1ccc(O)c(CN2CCCC(N3CCN(c4ccccc4OC)CC3)C2)c1 (centres undefined),0.4%,5.6,-0.8,-25.6,-0.7,-10.0
O=C(NC1CCCC1)C(c1ccccc1)N(Cc1ccco1)C(=O)Cc1cccs1 (centres undefined),-0.2%,-0.9,33.3,5.1,1.9,6.8
CC(C(=O)N(C)C1CCS(=O)(=O)C1)N1C(=O)/C(=C/c2cccs2)SC1=S (centres undefined),0.0%,4.2,-0.6,-5.5,-0.4,0.0
CC(=O)N1CCCc2cc(S(=O)(=O)N3CCCC(C(=O)Nc4ccccc4C)C3)ccc21 (centres undefined),-0.3%,3.4,-14.3,-21.1,-0.7,7.0
COc1ccc(Nc2c3c(nc4ccc(NC(=O)/C=C/c5cccc(OC)c5OC)cc24)CCCC3)cc1OC,-0.9%,nt,23.9,nt,2.1,nt
COc1ccccc1-c1nnc(SCC(=O)c2ccc(C3CCCCC3)cc2)n1Cc1ccco1,21.8%,-3.9,12.5,-16.6,1.2,-20.1
O=C(NNc1nc(-c2ccc(Cl)cc2)cs1)c1ccco1,0.4%,0.7,-13.4,-5.0,-1.0,-1.5
Cc1cccc(C)c1OCc1cc(C(=O)N(C)CCc2ccccn2)no1,-0.3%,-1.6,-5.3,-3.9,0.6,-1.1
COc1ccc(CNC(=O)[C@@H](NC(=O)C2CCN(C(=O)[C@@H](N)Cc3ccccc3)CC2)C(C)C)cc1,1.7%,-1.5,nt,4.6,nt,-0.1
O=C(O)c1oc2ccccc2c1CSCc1ccccc1,0.0%,-2.5,19.4,-0.7,-0.9,-16.1
COC(=O)CSc1nc(C)cc(N2CCOCC2)n1,2.9%,-3.4,-7.3,4.4,-0.3,1.7
CCC(C)NCCOCCOc1ccc(Br)cc1 (centres undefined),-2.9%,-1.9,-5.7,-1.0,0.4,13.8
